Vaccinia mCherry – qHTS for Stage-Specific Inhibitors of Vaccinia Orthopoxvirus: mCherry Reporter Primary qHTS. Potency, µM (series often up to 36.5 µM), for inactives: at the highest dose activity change, negative = inhibition, actives largely listed as inhibitors. AID 720579, 2013. Vaccinia virus mCherry reporter infection, fluorescence; about a quarter of the inactives have no number. 0.63% of 310,000 active; active = well fitted inhibition curve with a large enough effect; inconclusive = small, poorly fitted or top-dose-only effect; inactive = no such curve, though single readings can be large or run the other way; tested in A549 cells; further: nearly all actives have a fitted effect of over 35% in size; inactives centre near -10
Vaccinia Venus – qHTS for Stage-Specific Inhibitors of Vaccinia Orthopoxvirus: Venus Reporter Primary qHTS | 0.46% of 330,000 active | Vaccinia virus Venus reporter expression, fluorescence | Potency, µM (titrated, usually from 36.5 µM), for inactives: at the highest dose activity change, negative = inhibition, most hits filed as inhibitors | AID 720580, 2013; active means well fitted inhibition curve with a large enough effect; inconclusive means small, poorly fitted or top-dose-only effect; inactive means no such curve, though single readings can be large or run the other way; tested in A549 cells; further: nearly all actives have a fitted effect of over 30% in size; inactives centre near -10
* marks the source's active call; other numbers are inactive results; i = inactive; ? = inconclusive; . = no result given; [ ] = remark or other dose. On the % scale 0 is the no-effect control and ±100 the full control effect; potency means the concentration at half of the fitted maximal effect.

SMILES	Vaccinia mCherry	Vaccinia Venus
COc1ccc(-c2nc(CCNC(=O)c3ccccc3)cs2)cc1OC	-20%	-19%
Fc1ccc(-c2nc3ccc(Br)cn3c2Cc2ccsc2)cc1	8%	-2%
CCOC(=O)c1c(O)c2ccccc2n(C)c1=O	i	-4%
O=C(COC(=O)c1ccccc1F)Nc1ccc(S(=O)(=O)N2CCOCC2)cc1	-18%	-7%
O=C(CSc1nc2c([nH]c3ccccc32)c(=O)n1-c1ccccc1)c1ccccc1	?	?
O=C1NC2(CCCCO2)CO1 (configuration not stated)	i	1%
CCc1c(CN2CCN(c3cccc(C)c3)C(C)C2)csc1C (configuration not stated)	-5%	-4%
O=c1cc(-c2ccccc2)nc2nc(CCc3ccccc3)[nH]n12	.	-1%
CCOc1ccc(CNC(=O)c2ccc3nc(C(C)C)oc3c2)cc1	i	-8%
COc1cccc(CN2CC(C(=O)NCCCn3cccn3)CCC2=O)c1 (configuration not stated)	-16%	-3%
Cc1ccc(S(=O)(=O)N/N=c2\sc3ccccc3n2C)cc1	-18%	-10%
COc1ccc(C(=O)Nc2cnc3ccccn3c2=O)cc1	-13%	0%
Cc1c(C(=O)N2CCCc3ccccc32)oc2ccccc12	-19%	-5%
COc1cc(C(=O)NCc2cc(C)nc3ccccc23)cc(OC)c1OC	i	-2%
O=C(Nc1ccc(O)c(-c2nc3ccccc3s2)c1)c1cccs1	-2%	-18%
CC(=O)c1sc2nc(-c3ccc(C)cc3)c3c(c2c1N)CCCC3	-17%	-20%
CC(=O)Nc1ccc(S(=O)(=O)N2CCN=C2SCc2cccc(C)c2)cc1	-24%	-22%
Cc1occc1C(=O)NN1C(=O)C2C3CCC(O3)C2C1=O (configuration not stated)	-6%	-13%
NC(=O)CC(NC(=O)c1ccc(Br)cc1)c1ccc(NC2CCCCC2)c([N+](=O)[O-])c1 (configuration not stated)	-10%	?
CCn1c(CC(=O)Nc2ccccc2C)nnc1SCC(=O)NC1=NCCS1	-5%	7%
CCN(CCNS(=O)(=O)c1ccc2c(c1)oc(=O)n2C)c1ccccc1	?	-9%
O=C(CCN1CCOCC1)NNC(=O)Nc1cccc(Cl)c1	-2%	3%
O=c1[nH]c(=S)n(-c2ccc(Br)cc2)c(O)c1C=Nc1ccc(N2CCOCC2)cc1	-14%	2%
Clc1ccc(-c2ccc(C=Nc3ccc(N4CCOCC4)cc3)o2)cc1	-11%	-4%
CCOC(=O)C1(C)CCCN1C(=O)c1cccs1 (configuration not stated)	19%	1%
CC(C)NC(=O)C1(C)CSCC(=O)N1Cc1cccc(C(F)(F)F)c1 (configuration not stated)	-7%	14%
CC12CN3CC(C)(CN(C1)C3c1c[nH]c3ccccc13)C2=O (configuration not stated)	i	-2%
COc1cc(C(=O)NCC(=O)OCC(=O)N2CCc3ccccc32)cc(OC)c1OC	i	-15%
CCN(c1ccccc1)c1cc(C)nc2ncnn12	-1%	-1%
CC(C)c1ccc(C2N=C(N)Nc3nc4ccccc4n32)cc1 (configuration not stated)	-1%	5%
CC(C)c1ccc(NC(=O)Cn2c(=O)oc3cccnc32)cc1	-12%	-8%
c1cn(CCCNc2ncnc3sc4c(c23)CCC4)cn1	.	-16%
COCc1c(C(=O)N2CCN(C)CC2)cnn1-c1ncc2c(n1)-c1ccccc1CCC2	-24%	-12%
CC(C)N(C(=O)Cn1cc(SCC(=O)N2CCCC2)c2ccccc21)C(C)C	-18%	-18%
COc1ccc(CCN=C(N)NS(=O)(=O)c2ccc(OC)c(OC)c2)cc1OC	i	-5%
CC(=O)Nc1ccc(S(=O)(=O)Oc2cccc(/C=N/N=C3/NC(=O)C(CC(=O)O)S3)c2)cc1 (configuration not stated)	i	-12%
CCCCN(Cc1cc2cc(C)ccc2[nH]c1=O)C(=O)c1cccc(Cl)c1	-10%	-1%
O=C(CNC1CCCC1)Nc1cc(Cl)ccc1[N+](=O)[O-]	-3%	-8%
COc1ccc(CCNC(=O)c2nnn(CC(=O)Nc3cccc(F)c3)c2N)cc1OC	-1%	-9%
COC(=O)[C@@]12CCCN1[C@H](c1ccc(-c3ccc(F)cc3)c(OC)c1)[C@H]1C(=O)N(C)C(=O)[C@H]12	-10%	?
CCc1ccccc1NC(=O)CNC(=O)CCC(=O)c1cc(C)sc1C	i	-22%
Cc1csc2nc(CNC(=O)c3cccc(C(F)(F)F)c3)cn12	-19%[1.46 µM]	-21%
C=C1Nc2ccccc2C(=O)N1c1ccc(C(=O)N2CCN(C(=O)c3ccco3)CC2)cc1	-8%	-8%
Cc1cc(C(=O)OCC(=O)Nc2ccc(F)cc2)c(C)n1C1CC1	-3%	-5%
CCCCC1=CC2=CC(=O)C(C)(OC(=O)CCc3ccccc3)C(=O)C2=CO1 (configuration not stated)	i	22%
O=S(=O)(c1ccccc1)N1CCN=C1SCc1ccc(Cl)cc1	-6%	-12%
CCC(=O)N(Cc1cc2cc(OC)ccc2[nH]c1=O)c1ccccc1C	-19%	-16%
COc1cc(/C=C2\SC(N3CCCCC3)=NC2=O)cc(OC)c1OC	-13%	-5%
COc1ccc(C(=O)COC(=O)c2ccc(Cl)nc2)c(OC)c1	-7%	-9%
CCOc1ccc(C2CC(=O)NC(SCC(=O)OC)=C2C#N)cc1 (configuration not stated)	?	-12%
CCOc1ccc(OCCOCCOc2c(Cl)cccc2Cl)cc1	i	-7%
CC(C)(C)c1ccc(-c2nc3cc(N)ccc3o2)cc1	?	-22%
COc1ccc(C(=O)OCCNC(=O)c2c(Cl)nc3ccccn23)cc1	-20%	-11%
Cc1ccc(S(=O)(=O)NC(CC(C)C)C(=O)Oc2ccc3c4c(c(=O)oc3c2)CCC4)cc1 (configuration not stated)	i	-8%
CCc1ccc2c(c1)C1(SC(NC(C)=O)=NN1C(C)=O)C(=O)N2C(C)C (configuration not stated)	i	-4%
N#C/C(=C\C=C\c1ccccc1[N+](=O)[O-])c1nc(-c2ccc3c(c2)OCO3)cs1	-10%	4%
COc1ccc(Cc2nnc(SCC(=O)c3ccccc3)o2)cc1	.	-13%
O=[N+]([O-])c1cccc(-c2ccc3nnc(SCc4ccccn4)n3n2)c1	-14%	-1%
Cn1c(N)c(C(=O)COC(=O)C2(c3ccc(Cl)cc3)CCCC2)c(=O)n(C)c1=O	-26%	-21%
CCOC(=O)c1[nH]c2ccc(OC)cc2c1NS(=O)(=O)c1ccc(Cl)s1	-18%	-16%

Shown with values under each structure: entries from further up.
Second line of a record: Vaccinia mCherry, Vaccinia Venus
COc1cc(/C=C2\SC(N3CCCCC3)=NC2=O)cc(OC)c1OC
 : -13%, -5%
COc1ccc(C(=O)COC(=O)c2ccc(Cl)nc2)c(OC)c1
 : -7%, -9%
CCOc1ccc(C2CC(=O)NC(SCC(=O)OC)=C2C#N)cc1 (configuration not stated)
 : ?, -12%
CCOc1ccc(OCCOCCOc2c(Cl)cccc2Cl)cc1
 : i, -7%
CC(C)(C)c1ccc(-c2nc3cc(N)ccc3o2)cc1
 : ?, -22%
COc1ccc(C(=O)OCCNC(=O)c2c(Cl)nc3ccccn23)cc1
 : -20%, -11%

Additional records:
SMILES	Vaccinia mCherry	Vaccinia Venus
CC(c1ccco1)N(C(=O)COc1ccccc1[N+](=O)[O-])c1ccccn1 (configuration not stated)	.	-1%
COCCN1Cc2cccc(C(=O)Nc3cccc(C)c3C)c2C1=O	-12%	-7%
COc1ccc(OC)c(Nc2nc3nonc3nc2N2CCCC(C)C2)c1 (configuration not stated)	i	-5%
CCCCOc1ccc(CSc2nnc(C)n2N)cc1[N+](=O)[O-]	i	-5%
Cc1nc(NNC(=O)c2ccc([N+](=O)[O-])cc2)cc(-c2ccccc2)n1	-13%	-16%
c1ccc(-c2nc3c4ccccc4ccn3c2CN2CCCCC2)cc1	0%	-16%
CCN(CC(=O)Nc1ccc(NC(C)=O)cc1)C(=O)c1ccc2c(c1)S(=O)(=O)N=C1CCCCCN12	-7%	-27%
O=C(c1ccc(S(=O)(=O)N2CCCCCC2)cc1)N1CCN(c2ccccn2)CC1	-17%	-9%
CN1C(=O)C2(Oc3ccccc3C3CC(c4ccccc4)=NN32)c2ccccc21 (configuration not stated)	.	?
O=C(NN1CCOCC1)C12CC3CC(CC(C3)C1)C2	?	-16%
O=C(CCNC(=O)c1ccccc1Cl)Nc1nnc(C2CC2)s1	0%	-8%
Cc1ccc(OCC(=O)NCCNC(=O)c2cnccn2)cc1	-4%	-10%
O=C(NCc1ccc(F)cc1)C1CCCN(S(=O)(=O)c2ccc(Br)s2)C1 (configuration not stated)	?	-19%
CC(C)(C)c1nnc2sc(SCC(=O)c3ccccc3)nn2c1=O	.	-16%
COc1ccccc1S(=O)(=O)Cc1ccc(C(=O)NCCCN2CCN(c3ccc(F)cc3)CC2)o1	-6%	-1%

Reprinted at random: 4 records from the list.
SMILES	Vaccinia mCherry	Vaccinia Venus
O=C(NCc1ccc(F)cc1)C1CCCN(S(=O)(=O)c2ccc(Br)s2)C1 (configuration not stated)	?	-19%
CCN(CC(=O)Nc1ccc(NC(C)=O)cc1)C(=O)c1ccc2c(c1)S(=O)(=O)N=C1CCCCCN12	-7%	-27%
Cc1ccc(OCC(=O)NCCNC(=O)c2cnccn2)cc1	-4%	-10%
Cc1nc(NNC(=O)c2ccc([N+](=O)[O-])cc2)cc(-c2ccccc2)n1	-13%	-16%

Next records
SMILES	Vaccinia mCherry	Vaccinia Venus
CCn1nnc2cc(C(=O)Nc3ccc(C)cc3Br)ccc21	-12%	0%
CC(C)NC(=O)C1CCN(C(=O)c2cc3sccc3n2Cc2ccc(F)cc2)CC1	?	?
CCc1ccc(NC(=O)CC2C(=O)N(c3ccc(OC)cc3)C(=O)N2Cc2cccs2)cc1 (configuration not stated)	-4%	-7%
CCN(Cc1ccccc1)C(=O)C(=O)c1cn(CC(=O)N2CCCC2)c2ccccc12	-2%	-20%
CC1=CC(=O)C=CC1(C)C(Cl)(Cl)Cl (configuration not stated)	.	3%
Cc1ccc(S(=O)(=O)Nc2ccc3c(c2)ncn3C(C)(C)C)cc1	-19%	-23%
O=C(CC[C@H]1O[C@@H](n2ccc(=O)[nH]c2=O)[C@H](O)[C@@H]1O)N[C@H](Cc1ccccc1)C(=O)NCc1ccc2c(c1)OCO2	-1%	-2%
COc1ccccc1N1CCN(C(=O)CCS(=O)(=O)c2cc(Br)cc3c2N(C(=O)C2CC2)CC3)CC1	-17%	-4%
Cc1ccc(NC(=O)c2c3c(nc4ccccc24)C(=O)N(C2CCCCC2)C3)cc1F	?	?
Cc1nc(-c2ccc(F)cc2)c(CC(=O)Nc2cc(S(=O)(=O)N3CCCCC3)ccc2C)s1	-1%	-9%
O=C(c1cccnc1)N1N=C(C2CCCCC2)CC1(O)C(F)(F)F (configuration not stated)	-7%	?
COC(=O)c1cc(Br)c(=O)n(-c2ccc(F)cc2)c1	-15%	-6%
O=C(NC1CCCCC1)C(c1ccc(F)cc1)N(Cc1ccc2c(c1)OCO2)C(=O)c1cnsn1 (configuration not stated)	.	-7%
O=C(CN1CCN(S(=O)(=O)c2ccccc2)CC1)NC(=O)NCc1ccco1	21%	-9%
Cc1cccc(OCC(=O)N(Cc2ccc(N(C)C)cc2)C2CCS(=O)(=O)C2)c1 (configuration not stated)	i	0%
Cc1ccc(S(=O)(=O)N2CCN(S(=O)(=O)N3CCCCC3)CC2)cc1C	-12%	-1%
c1ccc(-c2ccccn2)nc1	i	-7%
COC(=O)[C@H]1C(OC)[C@@H](OC(=O)c2cc(OC)c(OC)c(OC)c2)C[C@@H]2CN3CCc4c([nH]c5cc(OC)ccc45)[C@H]3C[C@H]21 (some centres not stated)	i	0%
CCOc1nc2ccccc2nc1C	.	-7%
COc1cc(/C=N/NC(=O)c2cc(-c3cccc(OC(C)C)c3)nc3ccccc23)ccc1O	?	12%
Cc1ccc(S(=O)(=O)N2CCOCC2)cc1NC(=O)CNC(C)c1ccccc1 (configuration not stated)	-2%	-11%
CCOc1ccc(NC(=O)CN(C)C(=O)c2ccccc2OCc2c(C)noc2C)cc1OCC	-23%	-13%
O=C(N/N=C/C(Cl)=C\c1ccccc1)c1ccco1	i	-11%
S=c1nccc(-c2cccs2)[nH]1	-6%	-8%
CC(C)(C)c1cc(CCC(=O)NCc2ccncc2)cc(C(C)(C)C)c1O	-13%	-11%
Cc1ccc(S(=O)(=O)N2CCC(=O)N(C(COCc3cccc(Cl)c3)C(C)C)CC2)cc1 (configuration not stated)	-3%	-22%
S=c1[nH]nc(COc2ccc(Cl)cc2)n1Cc1ccccc1	23%	18%
O=C(O)CCN(Cc1ccccc1)S(=O)(=O)c1c(Cl)cccc1Cl	i	-10%
Cc1ccc(S(=O)(=O)NCCc2nnc3ccc(SCC(=O)Nc4nc(C)cs4)nn23)cc1	-11%	-6%
CC(C)(C)NC(=S)N/N=C/c1cccnc1	i[7.34 µM]	-8%[7.34 µM]
CC(C)CN1CCC(=O)NC1=S	i	-1%
COc1cccc(NC(=O)Cn2cc(C(=O)c3ccc(F)cc3)c(=O)c3cc(OC)ccc32)c1	-17%	-19%
CCOc1cc(/C=N/O)ccc1OCc1ccccc1F	-20%	-7%
Cn1c(O)c(N=Nc2ccc(F)cc2)c2ccccc21	?	-3%
NC(=O)CC(NC(=O)c1ccccc1)c1ccc(N2CCC(Cc3ccccc3)CC2)c([N+](=O)[O-])c1 (configuration not stated)	-22%	?

Screens: PubChem, National Center for Advancing Translational Sciences (NCATS)

Outcome played no part in choosing rows; 0.87% or so of the library scored in one or more.
